Source: PubChem (ICCB-Longwood Screening Facility, Harvard Medical School)
KSHV LANA nucl = inhibitors of KSHV LANA-nucleosome binding, primary screen, biochemical, fluorescence polarization, FITC-LANA1-23, chicken nucleosomes; FITC-LANA1-23 / chicken nucleosome fluorescence polarization; hits give low values; z-score (no concentration beside the values); actives 0.3% (n = 51,000);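 active means both repeat wells score below -2 in polarization z-score versus plate sample wells, excluding overly bright wells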;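 further: 100 nL library stock added to about 30 µL; numbers are from one replicate; some results filed as inactive read as strong as hits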
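Test system: purified chicken nucleosomes with FITC-labelled LANA N-terminal peptide (1-23); Input: 240 nM purified chicken nucleosomes (480 nM peptide binding sites), final; Medium: TEN-BT buffer, pH 7.5; Timing: 10–45 min, room temperature; Technique: fluorescence polarization, 480 nm excitation, 535 nm parallel and perpendicular emission; Replication: duplicates.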
BasE inh = BasE siderophore enzyme inhibitors, primary screen, biochemical, Acinetobacter baumannii ATCC 17978, fluorescence polarization; actives 0.1% (n = 84,000); AID 485350, 2010; purified BasE, fluorescence polarization binding displacement; inhibition, % (no concentration beside the values);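 active means both replicates above 25% with normal brightness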;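 further: 0% = negative plate control signal and 100% = positive plate control signal; stock transfer was 100 nL into about 30 µL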
* marks the source's active call; other numbers are inactive results. Not all compounds are listed; rates above refer to the full screens.

What do the screens show for `CN1CCN(c2ccc(NC(=O)c3ccc4c(c3)[nH]c(=O)n4C3CCCCC3)cc2)CC1`?
KSHV LANA nucl: -0.339; BasE inh: -0.6

Results for Cc1oc(-c2ccc(C(=O)NC3CC3)cc2)nc1COc1ccccc1 ?
KSHV LANA nucl: -0.542; BasE inh: 0.1

How did CCOC(=O)Cn1c(C(F)(F)F)nc2ccccc21 do in these assays?
KSHV LANA nucl: 0.059; BasE inh: 0.6

Results for Cc1nc(SCC(=O)O)c(C#N)cc1C(=O)Nc1ccccc1 ?
BasE inh: -0.7

What do the screens show for `CCCc1[nH]nc2c1C(c1cccc(OC)c1)C(C#N)=C(N)O2` (stereo not given)?
KSHV LANA nucl: 0.06; BasE inh: -1.8

How did O=C(O)c1ccccc1Nc1ccccc1 do in these assays?
KSHV LANA nucl: 0.14; BasE inh: 1.3

How did Cc1occc1C(=O)NN1CC(=O)N(C23CC4CC(CC(C4)C2)C3)C1=O do in these assays?
KSHV LANA nucl: 2.99; BasE inh: -1.4

How did O=C(O)C1CCCNC1 (stereo not given) do in these assays?
KSHV LANA nucl: -0.013; BasE inh: -0.6

How did CC1=C(C(=O)Nc2cccc(C(=O)NC(C)C)c2)SCCO1 do in these assays?
KSHV LANA nucl: 0.496; BasE inh: -0.4

What do the screens show for `CNC(=S)N1CCN(c2ccccc2F)CC1`?
KSHV LANA nucl: 2.92; BasE inh: -3.4

Results for CCOC(=O)N1CCN(S(=O)(=O)c2cccc(S(C)(=O)=O)c2)CC1 ?
KSHV LANA nucl: 0.379; BasE inh: 0.8

Results for Cc1noc(C)c1C(=O)NC12CC3CC(CC(C3)C1)C2 ?
BasE inh: -0.8

Results for CCOC(=O)/C(C#N)=C/Nc1cnc(N(C)C)c(C(F)(F)F)c1 ?
KSHV LANA nucl: -0.0535; BasE inh: -0.2

What do the screens show for `CC(=O)OC1c2ccccc2C(=O)N1Cc1ccccc1` (stereo not given)?
KSHV LANA nucl: 0.198; BasE inh: -6.1

Results for O=c1[nH]c(CNCc2cccs2)nc2ccsc12 ?
BasE inh: 4.2

What do the screens show for `O=C1CCC(=O)N1OCc1ccc(F)cc1`?
KSHV LANA nucl: 0.44; BasE inh: -1.4

Results for O=C(COCc1cc(-c2ccco2)on1)Nc1cc(C(F)(F)F)ccc1Cl ?
KSHV LANA nucl: -0.613; BasE inh: -2.5

Results for CCC1CCCCN1C(=O)c1cnn2c1NC(c1ccco1)CC2C(F)(F)F (stereo not given) ?
KSHV LANA nucl: -0.072; BasE inh: -1.9

How did COCCn1c(=O)[nH]c2cc(C(=O)Nc3nnc(C)s3)ccc21 do in these assays?
KSHV LANA nucl: 0.819; BasE inh: 4.3

How did CCn1c(-c2ccc3c(c2)OCCO3)cnc1SCC(=O)c1ccc2c(c1)CCN2S(C)(=O)=O do in these assays?
BasE inh: -0.2

Gathered by group: the compounds so far containing sulfur (7)
Results for Cc1nc(SCC(=O)O)c(C#N)cc1C(=O)Nc1ccccc1 ?
BasE inh: -0.7

How did CC1=C(C(=O)Nc2cccc(C(=O)NC(C)C)c2)SCCO1 do in these assays?
KSHV LANA nucl: 0.496; BasE inh: -0.4

What do the screens show for `CNC(=S)N1CCN(c2ccccc2F)CC1`?
KSHV LANA nucl: 2.92; BasE inh: -3.4

Results for CCOC(=O)N1CCN(S(=O)(=O)c2cccc(S(C)(=O)=O)c2)CC1 ?
KSHV LANA nucl: 0.379; BasE inh: 0.8

Results for O=c1[nH]c(CNCc2cccs2)nc2ccsc12 ?
BasE inh: 4.2

How did COCCn1c(=O)[nH]c2cc(C(=O)Nc3nnc(C)s3)ccc21 do in these assays?
KSHV LANA nucl: 0.819; BasE inh: 4.3

How did CCn1c(-c2ccc3c(c2)OCCO3)cnc1SCC(=O)c1ccc2c(c1)CCN2S(C)(=O)=O do in these assays?
BasE inh: -0.2

The main list resumes; the 2 compounds before the break are reprinted first.
How did COCCn1c(=O)[nH]c2cc(C(=O)Nc3nnc(C)s3)ccc21 do in these assays?
KSHV LANA nucl: 0.819; BasE inh: 4.3

How did CCn1c(-c2ccc3c(c2)OCCO3)cnc1SCC(=O)c1ccc2c(c1)CCN2S(C)(=O)=O do in these assays?
BasE inh: -0.2

What do the screens show for `Nc1c(-c2ccccc2)nc2sccn12`?
BasE inh: 2.4

Results for Cc1ccc(NS(C)(=O)=O)c(C(=O)c2ccccc2)c1 ?
KSHV LANA nucl: 0.331; BasE inh: -5.2

How did CCc1c(C#N)c(N)nc(SCC(=O)OCc2ccccc2)c1C#N do in these assays?
KSHV LANA nucl: 0.247; BasE inh: -0.6

Results for CCc1ccc(NC(=O)c2noc3c2CCCC3)cc1 ?
KSHV LANA nucl: -0.438; BasE inh: -0.4

What do the screens show for `N#CC(C(=O)c1ccccc1Cl)=C1SCCCS1`?
BasE inh: -4.3

Results for COc1ccc2oc(=O)c(C(=O)Nc3ccc(O)cc3)cc2c1 ?
KSHV LANA nucl: -0.804; BasE inh: 2.2

Results for COc1ccc(OC)c2c1sc(=NC(=O)C1CCCCC1)n2C ?
KSHV LANA nucl: -1.29; BasE inh: 1.2

What do the screens show for `CCCn1c(=S)[nH]c2cc(C(=O)N3CCc4ccccc4C3)ccc2c1=O`?
KSHV LANA nucl: 0.698; BasE inh: 1.3

How did COc1ccccc1OCc1ccc(C(=O)N2CCc3ccccc3C2)o1 do in these assays?
KSHV LANA nucl: 0.789; BasE inh: 0.0

What do the screens show for `CC1(C)OC(=O)C(=CNC(Cc2ccccc2)C(=O)O)C(=O)O1` (stereo not given)?
KSHV LANA nucl: -0.226; BasE inh: 0.6

How did COC(=O)C1CCN(c2ncc(C(F)(F)F)cc2Cl)CC1 do in these assays?
KSHV LANA nucl: 0.016

How did CCCN1C2=C(C(=O)CCC2)C(c2ccc(F)cc2)C2=C1c1ccccc1C2=O (stereo not given) do in these assays?
KSHV LANA nucl: -0.324; BasE inh: 1.0

Results for CC(=O)Nc1ccc(-c2nc3cc(C)ccc3o2)cc1 ?
KSHV LANA nucl: -0.911; BasE inh: 0.5

Results for CCOc1ccc(CNC(=O)C2CCN(c3nc4ccccc4o3)CC2)cc1 ?
KSHV LANA nucl: -1.38; BasE inh: 0.7

What do the screens show for `COc1ccc2c(Cl)c(-c3nnc4n3CCC4)sc2c1`?
BasE inh: -6.2

Results for Clc1cc(Cl)c2nsnc2c1 ?
KSHV LANA nucl: 0.142; BasE inh: 1.9

How did Cc1ccccc1-c1nc(CN2CCC(C(=O)NCCCN3CCCC(C)C3)CC2)c(C)o1 (stereo not given) do in these assays?
KSHV LANA nucl: 0.234; BasE inh: -4.4

Results for COc1ccc(-c2csc(=NCCO)n2-c2ccccc2)cc1 ?
KSHV LANA nucl: -0.579; BasE inh: 0.8

What do the screens show for `CCCCCOc1ccc(O)cc1`?
BasE inh: 2.5

How did O=C1CCCN2N=C(SCC(=O)Nc3nc4ccccc4s3)SC2=N1 do in these assays?
KSHV LANA nucl: 0.389; BasE inh: 2.6

How did Cc1nn(-c2ccccc2)c(C)c1/C=C/C(=O)OCn1nnc2ccccc2c1=O do in these assays?
BasE inh: 0.9

How did CCOC(=O)c1cccc(NC(=O)Cc2noc3ccccc23)c1 do in these assays?
KSHV LANA nucl: -0.131; BasE inh: 0.3

How did CS(=O)(=O)Cc1nc2ccccc2oc1=O do in these assays?
KSHV LANA nucl: 0.49; BasE inh: 1.0

What do the screens show for `COC(=O)c1ccc(NC(=O)CCNCc2ccco2)cc1`?
BasE inh: 0.5

How did CC(=O)Oc1cccc(-c2nc3cc(C)ccc3o2)c1 do in these assays?
KSHV LANA nucl: -0.877; BasE inh: -1.1

How did Cc1oc(-c2cccc(Br)c2)nc1CN1CCC(C(=O)NCC2COc3ccccc3O2)CC1 (stereo not given) do in these assays?
KSHV LANA nucl: 0.441; BasE inh: -8.7

How did NC(=O)c1ccc(NC(=O)COc2coc(CN3CCc4ccccc43)cc2=O)cc1 do in these assays?
KSHV LANA nucl: 0.793; BasE inh: 2.4

Results for CCOC(=O)/C=C1\SCC(=O)N1CCCCN1C(=O)c2ccccc2C1=O ?
BasE inh: -0.2

What do the screens show for `CCCN1CCN(C(=O)c2cn(Cc3ccccc3)nc2-c2ccccc2OC)CC1`?
BasE inh: -0.5

How did CC(C)(Oc1ccc(Cl)cc1)C(=O)OCC(=O)N1CCCC1 do in these assays?
BasE inh: 2.4

Results for O=C(NCC(c1ccc(F)cc1)N1CCOCC1)Nc1cccc(C(F)(F)F)c1 (stereo not given) ?
BasE inh: -2.8

Results for Cc1ccc(CN2CCS(=O)(=O)CC2)cc1 ?
KSHV LANA nucl: -0.597

Results for N#Cc1ccc(COC(=O)C2CCCN2C2=NS(=O)(=O)c3ccccc32)cc1 (stereo not given) ?
BasE inh: -6.0

How did O=C(c1ccccc1N=Nc1c(O)[nH]c(=O)[nH]c1=O)N1CCOCC1 do in these assays?
KSHV LANA nucl: 1.61; BasE inh: -0.3

Results for O=C1C(N2CCCCC2)=C(n2nnc3ccccc32)C(=O)c2ccccc21 ?
KSHV LANA nucl: -1.23; BasE inh: 0.3

How did O=C(Cc1ccccc1F)Nc1ccc(-n2cnnn2)cc1 do in these assays?
BasE inh: -0.1

What do the screens show for `CCc1nc(N2CCCCC2)c(C#N)c2c1CCCC2`?
BasE inh: 0.1

Results for O=C(c1ccccc1CCc1ccccc1)N1CCOCC1 ?
KSHV LANA nucl: 1.54; BasE inh: 0.7

Results for COc1ccc(-n2c(SCC(=O)c3ccc(O)cc3O)nc3ccccc32)cc1 ?
BasE inh: 17.3

How did O=C(NC1CC1)C1CCN(c2nc3cccnc3s2)CC1 do in these assays?
KSHV LANA nucl: -0.309; BasE inh: 1.7

What do the screens show for `NNC(=O)CNC(=O)c1cccnc1Oc1ccccc1`?
KSHV LANA nucl: 0.223; BasE inh: 0.7

How did COCC(=O)Nc1ccc(Cl)cc1 do in these assays?
KSHV LANA nucl: 0.106; BasE inh: 3.4

What do the screens show for `COc1cc(OC)c(C(=O)NCCCN2CCOCC2)cc1OC`?
KSHV LANA nucl: 0.178; BasE inh: -0.4

How did Clc1nc(CN2CCOCC2)nc2scc(-c3ccccc3)c12 do in these assays?
BasE inh: 0.9

How did CN(C)c1nc(C23CC4CC(CC(C4)C2)C3)cs1 do in these assays?
BasE inh: 2.2

Results for CCOC(=O)c1c(C)[nH]c(C)c1S(=O)(=O)NCC(=O)N1CCN(c2ccccc2)CC1 ?
BasE inh: -1.3

Results for CC1=C2C(=O)CCCC2=Nc2ccccc2N1 ?
KSHV LANA nucl: 0.22; BasE inh: 5.3

Results for COc1cc(CO)c(Br)cc1O ?
KSHV LANA nucl: -0.096; BasE inh: 2.9

What do the screens show for `O=C(/C=C/c1nc2ccccc2s1)OCC(=O)N1CCCC1=O`?
BasE inh: -2.1

How did Cc1ccc2onc(OC(=O)NC(C)(C)C)c2c1 do in these assays?
BasE inh: 3.2

How did CSc1ccc(-c2ccc(SC)cc2)cc1 do in these assays?
BasE inh: -9.7

Results for Cn1c(C(=O)NCCCN2CCN(c3ccccc3F)CC2)cc2c(=O)[nH]c3ccccc3c21 ?
KSHV LANA nucl: -1.34; BasE inh: -0.2

What do the screens show for `COc1ccc2c(CC(=O)OCc3c(C)noc3C)coc2c1`?
BasE inh: -1.4

Results for CC1(C)NC(=O)N(CCOc2ccc(F)cc2)C1=O ?
KSHV LANA nucl: -0.33; BasE inh: -0.9

Results for Cc1cc2nnc(SCC(=O)c3cc(C)n(Cc4ccccc4)c3C)n2c2ccccc12 ?
BasE inh: -17.7

What do the screens show for `CC(NC(=O)c1cccc(F)c1)C(c1cccs1)N1CCN(C)CC1` (stereo not given)?
KSHV LANA nucl: 2.04; BasE inh: -1.9

Results for O=C1c2cccc(O)c2C(=O)c2c(O)cccc21 ?
KSHV LANA nucl: 1.03

What do the screens show for `Cc1ccc2c(c1)N(C(=O)Nc1ccccc1C)CC(C)O2` (stereo not given)?
KSHV LANA nucl: -0.278; BasE inh: -0.7

What do the screens show for `COc1cccc(C2C(C#N)=C(N)Oc3n[nH]c(C(C)(C)C)c32)c1` (stereo not given)?
KSHV LANA nucl: 0.067; BasE inh: 0.3

How did CN(C(=O)COCc1cc(-c2ccco2)on1)C1CCCCC1 do in these assays?
KSHV LANA nucl: 1.22; BasE inh: -3.1

How did COc1cc(OC)c(OC)cc1CN1CCC(N2CCN(c3ccccc3OC)CC2)CC1 do in these assays?
KSHV LANA nucl: -0.137; BasE inh: 1.6

What do the screens show for `CC(C)CCNC(=O)C12CC3CC(CC(O)(C3)C1)C2`?
BasE inh: -1.1

What do the screens show for `CN(C)S(=O)(=O)c1cccc(-c2nnc3n2N=C(c2cccs2)CS3)c1`?
BasE inh: -0.1

Results for O=C(NCc1cccnc1)c1c(O)c2cccc3c2n(c1=O)CC3 ?
KSHV LANA nucl: -0.262; BasE inh: 0.6

Results for CCN(CC)C(=O)Cn1cc(SCC(=O)NC)c2ccccc21 ?
KSHV LANA nucl: -1.11; BasE inh: 3.0

How did Cc1cc(F)c(F)cc1C(=O)N1CCN(C)CC1 do in these assays?
KSHV LANA nucl: 0.382; BasE inh: -1.0

What do the screens show for `CCOC(=O)C1CCN(C(=O)c2cc3ccccc3oc2=O)CC1`?
KSHV LANA nucl: 0.885; BasE inh: -2.1

What do the screens show for `CCOC(=O)c1ccc(NC(=O)NC2CC3CCC(C2)N3Cc2nnnn2Cc2ccco2)cc1` (stereo not given)?
KSHV LANA nucl: -0.551; BasE inh: -2.0

How did O=C(O)Cc1c(F)cccc1Cl do in these assays?
BasE inh: 1.0

Results for Cc1ccc(NC(=O)CNC(=O)Cn2cnc3ccccc3c2=O)cc1F ?
KSHV LANA nucl: 0.117; BasE inh: -0.3

Results for Cc1nn(CC(=O)N(C)Cc2ccccc2)c(=O)c2nn(-c3ccccc3)c(C)c12 ?
BasE inh: 0.1

Results for O=C(NCn1cnccc1=O)c1ccccc1 ?
BasE inh: -0.9
